Vaccinia Venus: qHTS for Stage-Specific Inhibitors of Vaccinia Orthopoxvirus: Venus Reporter Primary qHTS | actives 0.46% (n = 330,000) | Vaccinia virus Venus reporter expression, fluorescence | Potency, µM (highest dose often 36.5 µM), without a hit: top-dose activity change, negative = inhibition, most hits filed as inhibitors; active means well fitted inhibition curve with a large enough effect; inconclusive means small, poorly fitted or top-dose-only effect; inactive means no such curve, though single readings can be large or run the other way; tested in A549 cells; note: nearly all actives have a fitted effect of over 30% in size; inactives centre near -10
VACV mCherry inh: qHTS for Stage-Specific Inhibitors of Vaccinia Orthopoxvirus: mCherry Reporter Primary qHTS | AID 720579, 2013 | Potency, µM (top dose mostly 36.5 µM), for the others: at the top dose activity change, negative = inhibition, usual class: inhibitors | actives 0.63% (n = 310,000) | Vaccinia virus mCherry reporter infection, fluorescence; about a quarter of the inactives have no number; active = well fitted inhibition curve with a large enough effect; inconclusive = small, poorly fitted or top-dose-only effect; inactive = no such curve, though single readings can be large or run the other way; tested in A549 cells; note: nearly all actives have a fitted effect of over 35% in size; inactives centre near -10
* marks the source's active call; other numbers are inactive results; i = inactive; ? = inconclusive; / = no result given; & = joins results of further samples; [ ] = another dose, or the depositor's remark. % is set by controls: 0 for no effect and ±100 for the full control effect; potency is the fitted concentration of half-maximal effect.

SMILES	Vaccinia Venus	VACV mCherry inh
O=C(Nc1ccc(N2CCN(C(=O)c3ccccc3F)CC2)cc1)c1cncc(Br)c1	-25%	-12%
NC(=O)c1ccccc1Br	1%	i
O=S(=O)(c1ccccc1)N1CCN(c2nnnn2-c2ccccc2)CC1	7%	-11%
CCN(CC)S(=O)(=O)c1ccc(C(=O)Nc2nc3c(Cl)cc(Cl)cc3s2)cc1	?	?
COC(=O)c1cc(S(=O)(=O)N2CCN(c3ccccc3)CC2)c[nH]1	-12%	-8%
CSCC[C@H](NC(=O)C1CCN(C(=O)[C@H](Cc2ccccc2)NS(=O)(=O)c2ccc(C)cc2)CC1)C(=O)O	-1%	-12%
Cc1cc(C)cc(N(CCC(=O)Nc2nnc(C)s2)S(=O)(=O)c2ccc(Cl)cc2)c1	-17%	-20%
CCCCn1c(C(C)NC(=O)CC)nc2ccccc21 (stereo not drawn)	1%	3%
COc1ccccc1NC(=O)C1CCCN(C(=O)Nc2ccc(F)cc2)C1 (stereo not drawn)	-6%	-11%
CCOc1ccccc1NC(=O)c1cc2cc(C)ccc2n1C	-21%	-27%
Nc1ccccc1SSc1ccccc1N	-8%	-3%
C/C(=N\Nc1ccc([N+](=O)[O-])cc1[N+](=O)[O-])c1ccc(-n2nncc2C(C)(C)C)cc1	-9%	-2%
C=CCn1c(NCc2ccccc2O)nc2ccccc21	-16%	-2%
CN(c1ccc(OCc2ccc([N+](=O)[O-])cc2)cc1)S(=O)(=O)c1ccccc1	-10%	?
O=C(Nc1ncccc1O)c1ccc2c(c1)OCO2	-28%	?
COc1ccc(CNC(=O)c2cc3c(=O)n(C)c4ccccc4c3n2C)c(OC)c1	-7%	-10%
Cc1ccc(Cn2c(C)c3cnn(CC(=O)NCc4ccccn4)c(=O)c3c2C)cc1	-16%	i
CS(=O)c1ccccc1COC(=O)Nc1ccccc1 (stereo not drawn)	-10%	-4%
Cc1nn(C)cc1CNC(=O)CCC(=O)O	-6%	/
CS(=O)(=O)c1ccc(NC(=O)COc2ccccc2C(=O)Nc2ccccc2)cc1	-17%	-15%
COC(=O)c1ccc(-c2ncc(-c3cccc4ccccc34)o2)cc1	6%	-15%
CCOc1c(Cl)cc(C(=O)Nc2ccccc2-c2ccccc2)cc1Cl	-1%	i
Cc1cc2ccccn2c1C(=O)c1nc(NCc2ccco2)ncc1Cl	-17%	-6%
COc1ccc2c(c1)CC/C(=C/c1ccncc1)C2=O	?	?
Cc1ccc(CNC(=O)C2CCN(C(=O)Nc3ccccc3)CC2)cc1	-10%	10%
COC(=O)C1CCN(c2ccc([N+](=O)[O-])cc2)CC1	-2%	i
Cc1ccc(C2CCN(C(=O)Nc3ccc(C)c(C)c3)C2)cc1 (stereo not drawn)	-5%	-3%
CCOc1ccc(-n2cc(-c3ccc(OC)c(OC)c3)[nH]c2=S)cc1	10%	?
Cc1cccc(Nc2nc3c(c(=O)n(C)c(=O)n3C)n2CC(O)CO)c1 (stereo not drawn)	-15%	-1%
N#Cc1nc(-c2cccc(Cl)c2)oc1N1CCC(C(N)=O)CC1	6%	-5%
O=C(Nc1nccs1)c1ccc(S(=O)(=O)NCc2cccs2)cc1	-29%	-17%
O=C(Nc1ccc([N+](=O)[O-])cc1Cl)c1cc(Cl)cc(Cl)c1O	?	8.9µM*
COc1cccc(OC)c1C(=O)n1nc(C)cc1C	0%	-8%
CC(C)CC(=O)NC(=S)N1CCCCCC1	0%	-8%
CCN(CC)C(=O)c1sc2c(c1C)c(=O)n(CCc1ccccc1)c(=O)n2Cc1ccc(C)cc1	-7%	-20%
O=C1NC(=O)C(=Cc2ccc3ccccc3c2)C(=O)N1	-6%	-6%
CCc1ccc(OC(C)C(=O)N(Cc2ccco2)C2CCS(=O)(=O)C2)cc1 (stereo not drawn)	-9%	i
CCCCOC(=O)C1=C(C)NC2(O)c3ccccc3C(=O)C12O (stereo not drawn)	11%	/
Oc1ccc(-c2nc3c4c(ncn3n2)-c2ccccc2CC42CCCC2)cc1	-6%	-14%
CCN(CC)c1ccc(NC2=C(Cl)C(=O)c3ccccc3C2=O)cc1	?	?

Brought forward from above: 7 entries, followed by the next part.
SMILES	Vaccinia Venus	VACV mCherry inh
CC(C)CC(=O)NC(=S)N1CCCCCC1	0%	-8%
CCN(CC)C(=O)c1sc2c(c1C)c(=O)n(CCc1ccccc1)c(=O)n2Cc1ccc(C)cc1	-7%	-20%
O=C1NC(=O)C(=Cc2ccc3ccccc3c2)C(=O)N1	-6%	-6%
CCc1ccc(OC(C)C(=O)N(Cc2ccco2)C2CCS(=O)(=O)C2)cc1 (stereo not drawn)	-9%	i
CCCCOC(=O)C1=C(C)NC2(O)c3ccccc3C(=O)C12O (stereo not drawn)	11%	/
Oc1ccc(-c2nc3c4c(ncn3n2)-c2ccccc2CC42CCCC2)cc1	-6%	-14%
CCN(CC)c1ccc(NC2=C(Cl)C(=O)c3ccccc3C2=O)cc1	?	?
CC(=O)NCC1CCN(C(=O)C2CCC(=O)N(CCc3cccc(F)c3)C2)CC1 (stereo not drawn)	-19%	-6%
C=CC1C(OC2OC(CO)C(O)C(O)C2O)OC=C(C(=O)OC)C1CC1CC(=O)CC(CC(=O)CCc2ccc(O)cc2)O1 (stereo not drawn)	-5%	2%
CCOC(=O)C(Cc1ccccc1)NC(=O)Cn1nnc(-c2ccc(SC)cc2)n1 (stereo not drawn)	-15%	i
COc1cc(/C=C(\C#N)c2nc3ccccc3[nH]2)ccc1OCc1ccccc1F	-17%	-17%
CC(C)C[C@H](NC(=O)c1nc[nH]c1C(=O)NC1CCN(C(=O)OC(C)(C)C)CC1)C(=O)OC(C)(C)C	?	-11%
COc1ccccc1Nc1cc(C(=O)NC2CCCC2)c2ccccc2n1	-2%	-4%
O=C(CC(=O)NCCc1ccccc1)NCCc1ccccc1	-11%	i
CCCCn1nnnc1SCC(=O)Nc1ccc(F)cc1	-13%	-15%
CCOC(=O)c1ccc(NS(=O)(=O)c2ccc3c(c2)CCCN3C(C)=O)cc1	-17%	i
Cc1ccc(-n2nc3cc(C)c(NC(=O)COc4ccccc4)cc3n2)cc1	10%	0%
O=S(=O)(Nc1ccncc1)c1ccc(Cl)c(Cl)c1	-18%	i
Cn1nc(CC(=O)NCc2cccc3ccccc23)c2ccccc2c1=O	-2%	/
CCCc1cc(=O)n2[nH]c(NCc3c(F)cccc3Cl)nc2n1	-26%&-10%	-17%
COc1ccc(NC(=O)Nc2cccc(C)n2)c(OC)c1	-23%&4%	-20%&-13%
CN(C(=O)C=Cc1ccco1)c1ccccc1	-16%	-1%
N#Cc1ccc(C(=O)Nc2cccc3ncccc23)c(F)c1	-4%	-3%
CCOC(=O)N1CCN(C(=O)C(C)SCc2ccccc2)CC1 (stereo not drawn)	-13%	-14%
Clc1ccccc1N=Nc1ccccn1	26%	i
CN(C)Cc1c(O)ccc2occ(C(=O)c3ccc(F)cc3)c12	-19%	?
c1ccc2c(Oc3ccc4c(c3)OCO4)nncc2c1	?	/

2 of these compounds in another layout.
canonical_smiles | Vaccinia Venus | VACV mCherry inh
CC(=O)NCC1CCN(C(=O)C2CCC(=O)N(CCc3cccc(F)c3)C2)CC1 (stereo not drawn) | -19% | -6%
C=CC1C(OC2OC(CO)C(O)C(O)C2O)OC=C(C(=O)OC)C1CC1CC(=O)CC(CC(=O)CCc2ccc(O)cc2)O1 (stereo not drawn) | -5% | 2%

Following part.
SMILES	Vaccinia Venus	VACV mCherry inh
COc1cccc(CNC(=O)CCc2nnc3ccc(NCCCN4CCCC4=O)nn23)c1	-20%	-16%
Cc1ccc(C(CC(=O)O)NC(=O)CCNC(=O)c2ccco2)cc1 (stereo not drawn)	-3%	-10%
CC(SC(=S)N1CCOCC1)C(=O)O (stereo not drawn)	-5%	-9%[1.46 µM]
CC(C)(C)c1ccc(CC(=O)N2CCC2(C)C(=O)Nc2ccc(F)cc2F)cc1 (stereo not drawn)	0%	22%
COc1ccc(C(=O)c2c(N)c(-c3nc(-c4ccc(OC)cc4)cs3)c3ccccn23)cc1	1%	-12%
Cc1[nH]c(C)c(S(=O)(=O)N(C)Cc2ccccc2)c1C(=O)N1CCCC1	-9%	i
COC(=O)c1ccc(-n2c(CCC(=O)O)ccc2-c2ccc(C)cc2)cc1	8%	0%
COc1cccc(C(O)c2nc(-c3ccc(F)c(Cl)c3)cs2)c1 (stereo not drawn)	-21%	?
Cc1ccc(NC(=O)[C@@H]2O[C@H](CO)[C@H](O)[C@H](O)[C@H]2O)cc1C(F)(F)F	-2%	-10%
Cc1ccc2c(c1)CC(C)N2S(=O)(=O)c1nnc(NC(=O)c2ccccc2F)s1 (stereo not drawn)	-15%	-14%
Cn1nc(C(C)(C)C)cc1C(=O)N1CCCCC1c1cc(C(=O)NCc2ccccc2)no1 (stereo not drawn)	-11%	1%
O=C(NC1CC1)C1CC(=O)N(c2ccc(F)cc2)C1 (stereo not drawn)	2%	4%
COC(=O)C(C(=O)OC)c1ccc(N)cc1	-7%	i
O=C(O)CCC(=O)N1c2ccccc2NC2=C(C(=O)CC(c3ccc(F)cc3)C2)C1c1ccc([N+](=O)[O-])o1 (stereo not drawn)	-4%	-13%
Cc1ccc(O)c(C(CC(=O)N2CCCC2)c2ccccc2)c1 (stereo not drawn)	-15%	-23%
O=C(OCc1nnc(-c2ccc([N+](=O)[O-])cc2)o1)c1ccc(F)c(S(=O)(=O)N2CCOCC2)c1	-3%	-5%
CCC/C(O)=C1\C(=O)CC(C)(C)CC1=Nc1ccccc1OC	-8%	-15%
CN1C(=O)C2(NCCc3c2[nH]c2ccccc32)c2ccccc21 (stereo not drawn)	-3%	/
Cc1ccc(C(C(=O)NCc2ccco2)N(CC2CCCO2)C(=O)Cn2nnc3ccccc32)cc1 (stereo not drawn)	8%	/
c1ccc(-n2ncc3c2ncn2cnnc32)cc1	-16%	-1%
Cc1ccc(NC(=O)N2CCc3ccccc3C2)cc1C	-12%	-22%
COc1cc(NC(=O)Cc2ccc(Cl)cc2)ccc1NC(=O)c1ccco1	-21%	-23%
CC1CCCCC1NC(=O)COC(=O)Cc1ccc(Br)cc1 (stereo not drawn)	-3%	-6%
O=C(c1cccc(Cl)c1)N1CCN(C(=O)c2ccccc2F)CC1	-22%	/
COc1ccc(C2=CC(=O)C[C@H](c3ccc(F)cc3)C2)cc1F	-15%	?
O=C(C[N+]1(c2ccccc2)CCOCC1)c1ccccc1	1%	-6%
CN(CCCN1CCOCC1)Cc1cn(C)nc1-c1ccccc1F	0%	9%
CCOC(=O)C1=C(C)NC(C)=C(C(=O)OCC)C1c1nc2ccccc2[nH]1	18%	12%
CCN(CC(N)=O)S(=O)(=O)c1ccc(F)cc1	-6%	-2%
N#CCCNS(=O)(=O)c1ccc(C(=O)OCC2CCCCC2)cc1	-22%	i
COc1cc(OC)c(OC)cc1/C=C/c1cc(C(F)(F)F)[nH]c(=O)n1	-7%	-3%
NN=C1C(Cl)=C(Cl)C(Cl)=C1Cl	-29%	-11%
CC(NC(=O)Nc1ccc([N+](=O)[O-])cc1)C(c1cccs1)N1CCCC1 (stereo not drawn)	-13%	-9%
CC(=O)OCC1OC(n2cnc3c(Cl)nc(Cl)nc32)C(OC(C)=O)C1OC(C)=O (stereo not drawn)	4%	-2%
C[C@H](NC(=O)c1nc[nH]c1C(=O)N1CCc2ccccc2C1)C(=O)OCc1ccccc1	-16%	i
CCOC(=O)N1CCN(C(=O)c2ccc(NC(=O)c3ccc(C)cc3)cc2)CC1	?	/
CCOC(=O)c1nn(-c2ccccc2)c(=O)cc1OCC(=O)Nc1cccc(OC)c1	-5%	-15%
Cc1ccc(S(=O)(=O)N2CCCCC2CCNC(=O)C(=O)NCc2ccco2)cc1 (stereo not drawn)	-29%	?
COc1cc2c(C(=O)Nc3ccc(C)cc3Br)cn(C)c(=O)c2cc1OC	-8%	-8%
COc1ccc(S(=O)(=O)Nc2cccc3c2O[C@H](CN(C)C)[C@@H](C)CN([C@H](C)CO)C3=O)cc1	14%	i

Grouped by structure: those above with an aryl thioether with sulfur outside any ring.
SMILES	Vaccinia Venus	VACV mCherry inh
CCOC(=O)C(Cc1ccccc1)NC(=O)Cn1nnc(-c2ccc(SC)cc2)n1 (stereo not drawn)	-15%	i
CCCCn1nnnc1SCC(=O)Nc1ccc(F)cc1	-13%	-15%

Next entries follow.
SMILES	Vaccinia Venus	VACV mCherry inh
O=C(c1ccco1)N1CCN(S(=O)(=O)c2cc(Cl)ccc2Cl)CC1	-8%	i
CC(NC(=O)c1cc2sccc2n1Cc1ccc(F)cc1)c1ccccc1 (stereo not drawn)	-7%	-20%
Cc1cc(C)c2c(=O)cc(C(F)F)oc2c1	-3%	/
CCOC(=O)NN=C1c2ccccc2-c2ccccc21	-25%	-5%
Cc1ccc(C(=O)Nc2ccc(-c3cn4cccnc4n3)cc2)cc1C	5%	-6%
Cc1ccc(C(=O)Nc2nnc(S(=O)(=O)N3CCCc4ccccc43)s2)cc1	-10%	-9%
Cc1cccc(-n2c(SCC(=O)N3CC(=O)Nc4ccccc43)nc3ccccc3c2=O)c1C	-28%	-10%
O=C(CSCc1c(F)cccc1Cl)NCc1ccncc1	-9%	-3%
CCOC1=C2CN(S(=O)(=O)c3ccc(C)cc3)[C@H](c3ccccc3)C[C@@H]2N(S(=O)(=O)c2ccc(C)cc2)[C@H](c2ccccc2)C1	-11%	29%
CCC(C)c1ccc(NC(=S)Nc2ccc(OC)c(OC)c2)cc1 (stereo not drawn)	-27%	/
CN(C)S(=O)(=O)c1ccc(N2CCCC2)c(C(=O)Nc2ccc(C(N)=O)cc2)c1	-12%	i

Source: PubChem BioAssay (National Center for Advancing Translational Sciences (NCATS))
